Screening results deposited in PubChem by several laboratories.
HSV replic up: increases HSV replication in cells. HSV replication augmentation in cells, fold increase. maximum fold increase. 0.005% of 220,000 active. AID 1956;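 active = peak rise of 1.5-fold or more in the series; tested in PC3 cells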;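 note: first round at 10 µM; read as green reporter fluorescence; hits show the peak of a series up to 25 µM; 1 = signal of infected wells without compound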
PKD1 inh: inhibitors of human PKD1 kinase; PKD1 kinase fluorescence polarization assay; Q15139; inhibition, %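 (about 10 µM by stock and volumes)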; 0.056% of 200,000 active;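 active = inhibition of 50% or more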;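 note: controls were vehicle for no effect and a reference inhibitor for full effect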
INS promoter inh: TRM-6 insulin promoter activity inhibition; TRM-6 cells (human fetal islet line), insulin promoter-eGFP reporter, imaging; reporter expression induced with tamoxifen; inhibition, % at 2 µM; 0.9% of 130,000 active; AID 1273;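 active = inhibition above the mean plus 3 SD, with well images judged a real hit on visual review, cut at about 60% in these data, passing the limit was not always enough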
GALR2 ag: GALR2 (human) receptor agonism. GALR2-expressing cells, agonist activation read-out. activation, %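 (tested at 5 µM)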. 0.48% of 140,000 active. AID 803;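 active = above mean plus 3 SD of all compounds, about 5% in these data, not always enough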;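 note: 0% = vehicle buffer wells and 100% = reference agonist at full effect; tested in CHO reporter cells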
Target sequence (O43603 whole entry, looked up): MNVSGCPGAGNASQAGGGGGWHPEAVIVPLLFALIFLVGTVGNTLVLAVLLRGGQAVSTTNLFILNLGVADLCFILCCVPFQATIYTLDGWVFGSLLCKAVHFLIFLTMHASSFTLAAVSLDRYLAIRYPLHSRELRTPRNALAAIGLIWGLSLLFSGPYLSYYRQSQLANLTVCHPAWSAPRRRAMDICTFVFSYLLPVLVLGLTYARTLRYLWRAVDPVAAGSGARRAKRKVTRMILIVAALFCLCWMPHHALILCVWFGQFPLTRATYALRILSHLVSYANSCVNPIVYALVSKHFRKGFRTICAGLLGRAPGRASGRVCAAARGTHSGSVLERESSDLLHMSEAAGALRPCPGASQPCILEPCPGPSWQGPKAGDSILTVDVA
RGS16-Gao: regulators of human RGS16-Galphao interaction; binding response (% of control), % at 10 µM; 0.38% of 220,000 active; bead-based flow cytometry RGS16-Galphao binding, fluorescence; actives lie on both sides; O15492+P09471;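 active = below 25% or above 175%, edge rows of some plates excepted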;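 note: Galphao activated by GDP with aluminum fluoride before binding; 100% = wells without compound and 0% = beads without RGS; some results beyond the cut were filed as inactive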
Target sequence (O15492 whole entry, looked up): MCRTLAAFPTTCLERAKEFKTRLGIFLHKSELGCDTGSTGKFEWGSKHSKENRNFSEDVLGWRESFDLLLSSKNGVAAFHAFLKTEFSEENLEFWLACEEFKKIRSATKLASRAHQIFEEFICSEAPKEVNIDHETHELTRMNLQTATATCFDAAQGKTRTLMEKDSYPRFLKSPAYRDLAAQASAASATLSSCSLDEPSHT
Target sequence (P09471 whole entry, looked up): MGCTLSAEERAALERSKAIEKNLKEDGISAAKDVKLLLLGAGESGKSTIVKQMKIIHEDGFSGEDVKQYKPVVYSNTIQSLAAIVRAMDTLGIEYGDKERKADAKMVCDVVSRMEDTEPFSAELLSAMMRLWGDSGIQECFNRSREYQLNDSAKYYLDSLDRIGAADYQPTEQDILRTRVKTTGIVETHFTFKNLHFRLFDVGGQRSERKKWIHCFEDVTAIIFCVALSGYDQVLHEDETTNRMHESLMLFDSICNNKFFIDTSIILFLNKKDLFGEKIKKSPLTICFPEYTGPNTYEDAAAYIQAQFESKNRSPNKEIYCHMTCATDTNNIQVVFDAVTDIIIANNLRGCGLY
INS promoter inh cell count: further read-out of INS promoter inh, marked with its call; normalized cell count, %; measured here: cell count, toxicity; reference of the scale not given here;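 cells exposed to compound for 48 h; stained nuclei by imaging scaled within each plate; lower means fewer cells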
HSV replic up primary fold: second read-out of HSV replic up, no call of its own (marks repeat the call); fold increase; compound at 10 µM; measured here: primary screen fold increase 10 uM; tested in PC3 cells;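 GFP signal in the first replicate; 1 = infected wells without compound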
Active calls of the source: *; i = inactive; · = no result given.

canonical_smiles,HSV replic up primary fold,INS promoter inh,RGS16-Gao,HSV replic up,INS promoter inh cell count,GALR2 ag,PKD1 inh
O=C1CCC(=O)N1OCCCOc1ccc(Br)cc1Cl,1,44,100,i,93,-1.2,-10
CCOc1ccccc1NC(=S)NNS(=O)(=O)c1c(C)cc(C)cc1C,0.93,-8,106,i,111,-2.3,-8
CCCCOC(=O)c1ccc(NC(=O)C2CCCO2)cc1 (centres undefined),0.96,52,101,i,132,-1.4,4
CCC1(c2ccccc2)NC(=S)N(c2ccc(C)c(C)c2)N1 (centres undefined),0.97,·,103,i,·,·,-4
O=C(NCCc1ccccc1)c1cnc2n(c1=O)CCS2,0.97,18,108,i,186,·,-12
COc1ccc(OC)c(N(CC(=O)Nc2cccc(C(F)(F)F)c2)S(C)(=O)=O)c1,0.94,-40,106,i,89,·,-4
Cc1occc1C(=O)N/N=C/c1cnn(C)c1C,0.92,-152,108,i,45,-3.1,6
O=C(NNC(=O)c1ccc(F)cc1)C(=O)N1CCCCC1,1,-32,110,i,89,-0.5,-7
CC(=O)Nc1ccc(NC(=O)N2CCCCC2)cc1,0.88,·,104,i,·,-2.3,-6
CCCCc1ccc(NC(=S)NCCO)cc1,0.92,·,99,i,·,·,3
CCCc1cc(=O)[nH]c(SCC(=O)c2cc(C)n(-c3cc(C)on3)c2C)n1,0.91,14,111,i,96,·,3
CCOC(=O)N1CCN(c2c(N3CCN(C(=O)OCC)CC3)c(=O)c2=O)CC1,1,·,85,i,·,·,·
CC(=O)OCCNC(=O)c1cccnc1,1.1,-10,104,i,128,-4.3,-5
CC(=O)C1=C(O)C(=O)N(c2cc(C(C)(C)C)on2)C1c1ccc(Br)cc1 (centres undefined),0.98,-6,100,i,64,-0.7,7
CCC(=O)c1ccc(OC(=O)c2cnccn2)cc1,0.9,·,106,i,·,·,-1
N#Cc1ccc(NC(=O)c2cc(=O)c3ccccc3o2)cc1,0.93,·,98,i,·,·,-7
CCOc1ccc(NC(=S)Nc2ccc(OCc3ccccc3)cc2)cc1,1,14,54,i,116,-0.3,2
CC1(C)N=C(N)NC(Nc2cccc(Br)c2)=N1,0.84,44,171,i,25,-0.4,7
CCOC(=O)c1ccc(N/C=C2\CCCCC2=O)cc1,0.97,-11,110,i,99,-0.8,2
COc1ccccc1OCc1ccc(C(=O)N2CCOCC2)o1,0.86,-100,155,i,57,-1.8,-11
Nc1ccc(Nc2ccccc2)c(S(=O)(=O)O)c1,0.9,·,105,i,·,·,·
O=C(c1cccc(C(F)(F)F)c1)N1CCC(O)(CS(=O)(=O)Cc2ccccc2)CC1,1,-10,96,i,110,-2.5,-5
O=C(CSc1nnc(C2CC2)n1Cc1ccco1)NCC(F)(F)F,0.97,·,97,i,·,·,-2
Cc1ccc(-c2noc(CCC(=O)NCC3CCCO3)n2)cc1 (centres undefined),0.94,-387,103,i,78,-1.4,-3
COCCOCCn1cnc2ccccc21,0.98,57,99,i,63,-0.8,3
COc1ccc2nc(SCCN(C)C)[nH]c2c1,0.84,33,97,i,91,·,-5
CCOc1ccc2nc(SCC(=O)NCc3ccc4c(c3)OCO4)[nH]c2c1,1.1,0,100,i,87,-2.9,-1
Cc1cc(C(=O)Nc2ccccc2N2CCCCC2)no1,0.97,·,100,i,·,·,·
CCOC(=O)C1=C(C)N=c2s/c(=C\C(=O)OC)c(=O)n2C1c1ccc(OC)cc1 (centres undefined),0.92,·,96,i,·,-2.7,-1
CCc1cc2c(SCC(=O)O)ncnc2s1,0.86,53,106,i,75,-0.7,-1
CCN(CC)c1ccc(/C=C2\CCC(/C=C(\C#N)C(=O)Nc3ccccc3F)=C2N2CCOCC2)cc1,1.2,i,97,i,84,-2.1,-4
Cc1cc(NC(=O)CSc2nc(=O)cc(N)n2-c2ccc(Cl)cc2)no1,1,·,105,i,·,·,-3
O=C(CSc1nnc(-c2n[nH]c3ccccc23)n1-c1ccccc1)Nc1ccccc1Cl,0.83,-7,103,i,187,-0.3,-9
Cc1cccc(-n2c(CNC(=O)c3ccccc3)nnc2SCC(=O)Nc2nccs2)c1,1,·,103,i,·,-1.0,0
COc1ccc(-c2c(O)c(C#N)c(-c3ccccc3)n(-c3ccc(OC)cc3)c2=O)cc1,1,7,104,i,106,0.2,13
O=C(CSc1nnc(Cc2ccccc2)n1-c1ccccc1)NNC(=O)Cc1ccccc1,1,50,93,i,128,-1.2,8
COc1ccc(F)cc1S(=O)(=O)N1CC(C)CC(C)C1 (centres undefined),1.1,-19,101,i,104,-0.8,-3
CCOC(=O)C1CCN(c2c(NCc3ccc(C(=O)Nc4ccc(C)cc4)cc3)c(=O)c2=O)CC1,1,·,101,i,·,·,·
Cc1ccc(NC(=O)Cn2c(O)c(N=NC(=O)c3cc([N+](=O)[O-])ccc3O)c3ccccc32)cc1,0.9,·,99,i,·,·,·
CC(OC(=O)CN1C(=O)NC(C)(C)C1=O)C(=O)c1ccccc1 (centres undefined),0.92,-49,90,i,74,-2.5,1
O=C(Cn1c(=O)n(Cc2ccco2)c(=O)c2ccccc21)NCC1CCCO1 (centres undefined),1,·,119,i,·,-0.9,-13
CCOc1ccc2c(c1)c(N=NC(N)=S)c(O)n2C,0.99,·,104,i,·,·,·
Cc1cccc(Nc2cc(=O)[nH]c(=O)[nH]2)c1,0.94,·,100,i,·,-0.4,-1
Cc1nc2nc(-c3ccco3)[nH]n2c(=O)c1Cc1ccccc1,1,12,97,i,137,-2.2,1
Oc1ccc(/C=N/N(Cc2ccccc2)c2ccccc2)cc1,0.96,·,99,i,·,·,1
Cn1c(=O)c2c(nc(NCCNC(=O)c3ccco3)n2Cc2ccc(Cl)cc2Cl)n(C)c1=O,1,0,92,i,140,-2.3,-4
CCn1c(=O)n(-c2ccc(Cl)cc2)c(=O)c2c3c(sc21)COC(C)(C)C3,0.6,74*,100,i,66*,-1.3,-4
CCCCc1nnc(SCCSc2nnc(CCCC)n2N)n1N,0.99,-283,97,i,76,-1.3,2
O=C1CC(c2cccs2)Cc2nc(NCC3CCCO3)ncc21 (centres undefined),0.98,-91,98,i,101,-2.4,-4
O=C(Cn1cccc1)Nc1ccc(OC(F)(F)F)cc1,0.91,·,105,i,·,0.7,5
O=C(NCc1ccc(Cl)cc1)c1ccc(OCC2CCCO2)cc1 (centres undefined),0.88,-5,102,i,144,-0.3,-1
O=C(Nc1ccc(-c2nc3cc(Cl)ccc3o2)cc1)C1CCCO1 (centres undefined),0.86,24,102,i,162,0.5,1
Cc1cc(C)n(CCc2nc(-c3ccco3)cs2)n1,1,38,43,i,118,-2.2,-9
N#C/C(=C(/O)c1ccc(-c2cccc([N+](=O)[O-])c2)o1)c1nc2ccccc2s1,0.99,13,108,i,92,·,0
Cc1c(C#N)c2ccccc2n1CC(=O)NCC1CCCO1 (centres undefined),0.98,-7,103,i,50,-0.5,-3
Cc1ccc2c(c1)N(C(=O)CSc1nncn1C)C(C)(C)c1ssc(=S)c1-2,0.71,-18,102,i,93,-1.8,-12
COc1ccc(NC(NC(=O)c2cccnc2)C(Cl)(Cl)Cl)cc1 (centres undefined),0.98,·,99,i,·,·,2
COc1cnc(N(C)C)nc1Sc1ccc(Cl)cc1,0.99,14,106,i,95,-0.3,-4
C/C(=N\NC(N)=O)C1(C)CCCCC1,1,-4,100,i,115,-2.2,-1
O=C(NCC12CC3CC(C1)CC(CNC(=O)N1CCCC1)(C3)C2)N1CCCC1,0.94,-51,101,i,161,-0.5,0

Among those listed so far, 3 have a thiophene ring, fused or not.
canonical_smiles,HSV replic up primary fold,INS promoter inh,RGS16-Gao,HSV replic up,INS promoter inh cell count,GALR2 ag,PKD1 inh
CCc1cc2c(SCC(=O)O)ncnc2s1,0.86,53,106,i,75,-0.7,-1
CCn1c(=O)n(-c2ccc(Cl)cc2)c(=O)c2c3c(sc21)COC(C)(C)C3,0.6,74*,100,i,66*,-1.3,-4
O=C1CC(c2cccs2)Cc2nc(NCC3CCCO3)ncc21 (centres undefined),0.98,-91,98,i,101,-2.4,-4

Next part.
canonical_smiles,HSV replic up primary fold,INS promoter inh,RGS16-Gao,HSV replic up,INS promoter inh cell count,GALR2 ag,PKD1 inh
CC(=O)NCCc1ccc(S(=O)(=O)NC2OC(=O)c3ccccc32)cc1 (centres undefined),0.94,29,78,i,129,-1.7,-7
O=C(COC(=O)COc1ccc2ccccc2c1)NCC(F)(F)F,0.94,40,103,i,50,·,-7
COC(=O)c1ccccc1NC(=O)C1CC(=O)N(c2ccc(F)cc2)C1 (centres undefined),0.9,71*,63,i,67*,1.1,-6
CCNc1nc(NC(C)C)nc(N(C)C#N)n1,0.98,·,96,i,·,·,·
Cc1ccc(C(=O)O)cc1S(=O)(=O)N1CCC(C(=O)O)CC1,1.1,-79,100,i,157,-2.2,-1
CCN1CCN(C(=O)CCN2C(=O)c3ccccc3C2=O)CC1,0.96,·,94,i,·,·,3
O=C(NNC(=O)C(O)(c1ccccc1)c1ccccc1)C1CC1,0.82,·,98,i,·,·,-6
Cc1nn(C)cc1C(C)NCc1c(C(=O)N2CCCCCCC2)nc2ccc(Cl)cn12 (centres undefined),0.94,·,96,i,·,·,3
COc1ccccc1-c1nc(C#N)c(N2CCC(C(N)=O)CC2)o1,0.78,-69,121,i,84,-0.4,-5
CCOc1ccc(-c2nc(C#N)c(NCC3CCCO3)o2)cc1 (centres undefined),0.86,30,104,i,54,-0.8,-1
Cc1c(NCc2cc(Cl)ccc2O)c(=O)n(-c2ccccc2)n1C,0.96,58,103,i,78,-1.4,-10
O=C1C(=O)N(CCCN2CCOCC2)C(c2cccs2)/C1=C(/O)c1ccc2c(c1)OCO2 (centres undefined),0.9,25,103,i,121,2.2,-8
O=S(=O)(CCSc1nc2ccccc2o1)c1nc2ccccc2s1,0.58,52,100,i,102,-1.1,-3
N#Cc1ccsc1NC(=O)CN1CCN(c2ccccn2)CC1,0.86,-51,105,i,79,-2.7,0
CCc1ccc(C(C(=O)NC2CCCC2)N(C(=O)/C=C/C(=O)Nc2cc(C)on2)c2ccccc2C)cc1 (centres undefined),0.62,5,65,i,97,-0.9,-9
CCOC(=O)C1=C(C)OC(N)=C(C#N)C1c1ccc(O)c(OC)c1 (centres undefined),0.88,-45,75,i,93,-4.5,-3
CC(=O)Nc1ccc(S(=O)(=O)N2CCCN(S(=O)(=O)c3ccc(C)cc3)CC2)cc1,0.86,·,104,i,·,-1.6,1
Cc1cccn2cc(-c3c[nH]c4ccccc34)nc12,1.1,·,103,i,·,·,-5
CNc1oc(-c2ccccc2)nc1C#N,0.92,3,107,i,106,-1.6,-7
Cc1ccsc1C(=O)N1CCCC(CCC(=O)NCc2ccccc2F)C1 (centres undefined),0.94,·,97,i,·,·,1
NS(=O)(=O)c1ccc(CCNC(=O)CN2CCN(c3cccc(Cl)c3)CC2)cc1,1,3,98,i,92,-1.8,-10
CCOC(=O)C1CCN(C(=O)Cc2c(C(=O)O)n(CC)c3ccccc23)CC1,0.88,38,98,i,93,-0.8,-8
COc1ccc2[nH]c(=O)c(CN(C(=O)c3cccnc3)c3ccccc3OC)cc2c1,1.1,-8,102,i,102,-1.9,-10
CC(C)Cc1nnc(NC(=O)c2cc(-c3ccccc3)nc3ccccc23)s1,0.95,10,98,i,106,-0.7,-5
CCOc1ccc(NC(=S)N(CCCN2CCOCC2)Cc2cn(C)c3ccccc23)cc1,0.61,-31,102,i,68,-0.3,-4
CCCn1nc(C(=O)OCC(=O)Nc2ncc(Cl)c(C)c2Cl)c2ccccc2c1=O,0.9,·,100,i,·,-1.1,-7
O=C(Nc1ccccc1F)c1ccco1,1.2,48,·,i,158,-1.6,-3
Cc1ccc(-c2nc3ccccc3s2)cc1NC(=S)NC(=O)c1cccc2ccccc12,1,-31,98,i,129,0.2,1

Reformatted as labelled records: two of the compounds above
NS(=O)(=O)c1ccc(CCNC(=O)CN2CCN(c3cccc(Cl)c3)CC2)cc1
- HSV replic up primary fold: 1
- INS promoter inh: 3
- RGS16-Gao: 98
- HSV replic up: i
- INS promoter inh cell count: 92
- GALR2 ag: -1.8
- PKD1 inh: -10

CC(C)Cc1nnc(NC(=O)c2cc(-c3ccccc3)nc3ccccc23)s1
- HSV replic up primary fold: 0.95
- INS promoter inh: 10
- RGS16-Gao: 98
- HSV replic up: i
- INS promoter inh cell count: 106
- GALR2 ag: -0.7
- PKD1 inh: -5
